# miR-21 FLuc = qHTS Assay for Modulators of miRNAs and/orActivators of miR-21 | Potency, µM (titrated, usually from 38.3 µM), without a hit: top-dose reporter change, positive = more light | 340,000 tested, under 10 active | HeLa miR-21 FLuc reporter, luciferase, 48 h | AID 2288, 2010; active = well fitted rising curve with a large enough effect; inconclusive = small, poorly fitted or top-dose-only effect; inactive = no such curve, though single readings can be large or run the other way;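 further: % of control where 0% means no effect; miR-21 action dims this reporter so a rising signal means less miR-21 action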
#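 Luminescence from a firefly luciferase reporter carrying a miR-21 binding site downstream, stably expressed under a CMV promoter in HeLa cells that make miR-21 endogenously, reports miRNA modulation after 48 h compound exposure up to approximately 40uM final.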
# The depositor's hits bear a star; u = inconclusive. This is a subset (hit frequency here may not be typical).
SMILES,miR-21 FLuc
COc1ccc(OC)c(NC(=O)CN2C(=O)CC(c3ccco3)Sc3ccccc32)c1 (stereo not drawn),8%
Cc1cc(N(CCO)Cc2ccccc2)n2nc(-c3ccc(C(C)(C)C)cc3)nc2n1,-22%
CC(NC(=O)Cc1ccc(NC(=O)N2CCSc3ncccc32)cc1)c1ccccc1 (stereo not drawn),11%
Cc1c(C(=O)Nc2ccc(-n3c(C)nc4ccccc4c3=O)cc2)cccc1[N+](=O)[O-],19%
Cc1ccc(C2=Nc3ccccc3N=C(c3ccc(F)cc3)C2)c(O)c1,-24%
CCSc1nc2sc3c(c2c(=O)n1-c1ccc(C)c(Cl)c1)CCN(C(C)=O)C3,6%
O=C(CSc1nccn1Cc1ccc(F)cc1)NCc1ccccc1,-4%
COc1ccc(-c2nc3ccccc3s2)cc1NC(=O)c1ccc(F)cc1,-6%
CCc1ccc(NC(=O)C2CCN(S(=O)(=O)c3c(C)noc3/C=C/c3ccco3)CC2)cc1,2%
CCOC(=O)c1ccc(NC(=O)c2c(-c3c(F)cccc3Cl)noc2C)cc1,u
CC(=O)c1c(C)n(-c2ccc(C)cc2)c2ccc(OC(=O)COc3ccccc3)cc12,2%
CC(Sc1ncc(S(=O)(=O)c2ccc(C(C)C)cc2)c(N)n1)C(=O)Nc1ccccc1 (stereo not drawn),u
Cc1cccc(Cn2ccn(Cc3ccc(Cl)cc3)c(=O)c2=O)c1,-9%
Cc1ccc(CNC(=O)C(=O)NCC(c2cccs2)S(=O)(=O)c2ccccc2)cc1 (stereo not drawn),0%
CCOC(=O)C1CCN(C(c2cccc(F)c2)c2c(O)cc(C)n(CCOC)c2=O)CC1 (stereo not drawn),-3%
O=C(c1ccc2c(Cl)c3c(nc2c1)CCCC3)N1CCN(c2ccc(Cl)cc2)CC1,1%
CSCCC(NS(=O)(=O)c1ccc2c(c1)oc(=O)n2C)C(=O)NCc1ccc(F)cc1 (stereo not drawn),0%
CSc1ccc(CCNC(=O)c2cc(C)nc3c2c(C)nn3-c2cccc(F)c2)cc1,-2%
Cc1ccc2c(CC(=O)Nc3c(C(=O)c4ccc(F)cc4)oc4ccccc34)coc2c1,-2%
CCOC(=O)Cn1c(=O)n(C2CCCCC2)c2nc(-c3ccc(Cl)cc3)nc(C(N)=O)c21,-2%
CC(C)c1ccc(NC(=O)c2cnc3sc(N4CCOCC4)nn3c2=O)cc1,7%
COc1cccc(C(=O)c2sc3nc(-c4ccccc4)cc(C(F)(F)F)c3c2N)c1,-4%
Cc1ccc(NC(=O)Cn2c(=O)n(Cc3ccc4c(c3)OCO4)c(=O)c3ccc(C(=O)NC4CCCCC4)cc32)c(C)c1,-4%
COc1cc(Cl)c(C)cc1NC(=O)c1cnn(-c2ccc(C)cc2)c1-n1cccc1,-1%
COc1cc2ccccc2cc1C(=O)Nc1ccc2oc(-c3ccc(Cl)cc3)nc2c1,-22%
# (next part)
SMILES,miR-21 FLuc
COc1ccc(Nc2ncc(C(=O)N3CCN(c4cccc(Cl)c4)CC3)c3ccccc23)cc1,u
Cc1ccccc1CSc1nc2c([nH]c3ccccc32)c(=O)n1C,-1%
CCOc1ccc(-c2cc3c(=O)n(Cc4nc(-c5ccccc5OCC)oc4C)ccn3n2)cc1Cl,-1%
Cc1ccc(C2=Nc3ccccc3N(CC(=O)Nc3ccccc3F)C(=O)C2)cc1C,0%
C#CCn1c(C2CC(=O)N(c3ccc(OCC)cc3)C2)nc2ccccc21 (stereo not drawn),-11%
CC(=O)N1c2ccccc2C(C)(c2ccc(C)cc2)CC1(C)C (stereo not drawn),5%
Cc1cccc(NC(=O)CSc2nccn2Cc2ccc(F)cc2)c1C,-2%
COc1ccc(CCN2C(=O)CN(C3CCCCCC3)C(=O)C2c2ccc(C)cc2)cc1OC (stereo not drawn),-8%
CNC(=O)c1ccc(CSc2nc3cccnc3n2Cc2cccc(F)c2)cc1,-8%
Cc1ccc(CNC(=O)CN(c2ccc(Cl)cc2Cl)S(=O)(=O)c2ccccc2)cc1,u
Cc1ccc(Cc2nc3ccccc3nc2SCC(=O)N2CCN(c3ccc(F)cc3)CC2)cc1,-7%
CCc1ccc(CNC(=O)c2ccc(CSc3nc4ccncc4n3Cc3ccccc3)cc2)cc1,4%
Cc1c(C(=O)OCC2CCCCC2)[nH]c2c1C(=O)CC(c1ccccc1Cl)C2 (stereo not drawn),-6%
COc1ccc(CNC(=O)Nc2cn(CC(C)C)c(=O)c3ccccc23)cc1,-3%
COCCSc1nc2c([nH]c3ccccc32)c(=O)n1-c1ccc(OC)c(OC)c1,u
Cc1ccc(NC(=O)C2CCCN(S(=O)(=O)c3c(C)n[nH]c3C)C2)c(C)c1 (stereo not drawn),-1%
CCCCCOc1ccc(/C=C/C(=O)Nc2sc(C)c(C)c2C(=O)OCC)cc1OC,-2%
COc1ccc(-n2nc(C(=O)N(C)c3cccc(C(F)(F)F)c3)c3c4ccccc4n(C)c3c2=O)cc1,-5%
COc1cccc(Nc2sc(C(=O)c3ccc(Cl)cc3)c(N)c2C(=O)NCCc2ccc(OC)c(OC)c2)c1,-2%
CCCCNc1nc(Oc2ccc(=O)n(-c3ccccc3)n2)nc(N(CC)CC)n1,u
COc1ccc(C2(CNC(=O)C(=O)Nc3ccccc3C)CCCC2)cc1OC,16%
CC(=O)Nc1ccc(NC(=O)c2nc(S(=O)(=O)Cc3ccc(F)cc3)ncc2Cl)cc1,u
COc1ccc(S(=O)(=O)Nc2cccc(-c3ccc(N4CCC(C)CC4)nn3)c2)c(OC)c1,-13%
CCn1c(=O)n(-c2cccc(Cl)c2)c(=O)c2sc3ccccc3c21,-7%
O=C(CCCc1ccccc1)NC1CC(=O)N(c2cccc(F)c2)C1 (stereo not drawn),-7%

# 3 entries already listed, ordered by the number in miR-21 FLuc, high to low:
molecule | miR-21 FLuc
Cc1ccc(C2=Nc3ccccc3N(CC(=O)Nc3ccccc3F)C(=O)C2)cc1C | 0%
CCOc1ccc(-c2cc3c(=O)n(Cc4nc(-c5ccccc5OCC)oc4C)ccn3n2)cc1Cl | -1%
COc1cccc(Nc2sc(C(=O)c3ccc(Cl)cc3)c(N)c2C(=O)NCCc2ccc(OC)c(OC)c2)c1 | -2%

# Continued:
SMILES,miR-21 FLuc
Cn1c(=O)oc2cc(S(=O)(=O)N3CCCC(C(=O)NCCc4ccccc4)C3)ccc21 (stereo not drawn),-7%
CCC(=O)N1CCc2cc(S(=O)(=O)NCCC(=O)Nc3ccc(C)cc3C)ccc21,-5%
CNC(=O)C1CCC(Cn2c(=O)c3sccc3n(CC(=O)N3CCCC(C)C3)c2=O)CC1 (stereo not drawn),2%
COc1ccc2oc(=O)c(C(=O)Nc3cccc(C(=O)O)c3)cc2c1,-27%
CC(C)c1ccc(S(=O)(=O)NCc2ccc3c(c2)CCN3C(=O)c2ccccc2)cc1,22%
CCOC(=O)c1cc2c(=O)n3ccccc3nc2n(Cc2ccco2)c1=NC(=O)c1ccccc1Br,1%
COc1ccc(CNC(=O)CN2C(=O)CSc3ccc(S(=O)(=O)N4CCC(C)CC4)cc32)cc1,7%
COc1ccc(NC(=O)CN2C(=O)C(C)(C)c3cc(S(=O)(=O)N4CCCCC4)ccc32)cc1Cl,27%
CCCNC(=O)C1CCC(Cn2c(=O)c3sccc3n(CC(=O)Nc3ccccc3C)c2=O)CC1 (stereo not drawn),-4%
COc1ccccc1NC(=O)c1c(NC(=O)c2ccccc2Cl)sc2c1CCC2,-1%
c1ccc(COc2ccc(-c3sc(Nc4ccccc4)n[n+]3-c3ccccc3)cc2)cc1,21%
COc1ccc(N2CCN(C(=O)CN3C(=O)COc4ccc(S(=O)(=O)N5CCC(C)CC5)cc43)CC2)cc1,1%
CCOc1ccc(NC(=O)CCc2c(C)nc3nc(-c4cc(OC)cc(OC)c4)nn3c2C)cc1,-7%
CCOc1ccc(-c2nc3c(c(SCC(=O)N4CCCCC4)n2)Cc2cc(C)ccc2O3)cc1,0%
CCCCOc1ccc(-c2nn(-c3ccccc3)cc2C2NC(=O)NC(C)=C2C(=O)OC)cc1 (stereo not drawn),-7%
CC(C)(C)C(=O)Nc1ccccc1C(=O)OCc1cc(=O)n2ccsc2n1,-1%
COc1ccc(OCC(=O)Nc2cc(-c3ccccc3F)nn2-c2ccccc2)cc1,-11%
Cc1c(Cl)cccc1NC(=O)c1ccc2snnc2c1,-19%
Cc1ccc(OCC(=O)NCC2(N3CCN(C)CC3)CCCCC2)cc1,-6%
CCn1c(=O)cc(OCC(=O)Nc2cc(Cl)c(OC)cc2OC)c2ccccc21,4%
COc1ccc(S(=O)(=O)NCCc2csc(-c3ccc(F)cc3)n2)cc1F,16%
O=C(Cn1c(=O)n(-c2ccccc2)c(=O)c2ccc(C(=O)NCc3ccc4c(c3)OCO4)cc21)Nc1ccc(Br)cc1,-9%
Cc1ccc(CN2CCc3nc(Nc4ccc5c(c4)OCCO5)ncc3C2)cc1,11%
O=C(NC1CC(=O)N(c2cccc(F)c2)C1)C1CCCCC1 (stereo not drawn),-3%
O=C(Cn1cc(S(=O)(=O)c2ccccc2)c(=O)c2cc3c(cc21)OCO3)Nc1ccccc1,3%

# Compounds shown so far with a furan ring, fused or not, in the order listed:
SMILES,miR-21 FLuc
COc1ccc(OC)c(NC(=O)CN2C(=O)CC(c3ccco3)Sc3ccccc32)c1 (stereo not drawn),8%
CCc1ccc(NC(=O)C2CCN(S(=O)(=O)c3c(C)noc3/C=C/c3ccco3)CC2)cc1,2%
Cc1ccc2c(CC(=O)Nc3c(C(=O)c4ccc(F)cc4)oc4ccccc34)coc2c1,-2%
CCOC(=O)c1cc2c(=O)n3ccccc3nc2n(Cc2ccco2)c1=NC(=O)c1ccccc1Br,1%

# Other compounds.
SMILES,miR-21 FLuc
COc1cc(OC)cc(-c2nc3nc(C)c(CCC(=O)Nc4ccc(F)cc4F)c(C)n3n2)c1,-21%
COc1ccc(-c2noc(CN(C(=O)COc3cc(C)c(Br)c(C)c3)C(C)C)n2)cc1,-21%
COc1cccc(NC(=O)Nc2cccc(-c3cn4cccnc4n3)c2)c1,15%
CN(c1ccccc1)c1ncnc2c1cnn2C,-19%
Cc1ccc(Nc2nc(C(N)=O)c(NC(=O)c3ccccc3Br)s2)cc1,5%
O=C(CSc1nc2c([nH]c3ccccc32)c(=O)n1-c1ccccc1)N1CCCc2ccccc21,-4%
O=C(Nc1nc2n(n1)C(c1ccc(F)cc1)C=C(c1ccccc1)N2)c1cccc([N+](=O)[O-])c1 (stereo not drawn),-1%
Cc1ccc(C)c(OCCn2cc(C(=O)c3ccco3)c3ccccc32)c1,0%
CCc1ccc(CNC(=O)CN2C(=O)c3cccnc3Oc3ccc(C)cc32)cc1,17%
CCOc1ccc(-c2nnc(SCC(=O)NCCc3ccccc3)nc2-c2ccc(OCC)cc2)cc1,3%
COc1ccc(CCNC(=O)c2nn(C)c3c2CSc2ccccc2-3)cc1OC,21%
COc1cccc(-c2ccnc3c(-c4ccc(F)cc4)c(C)nn23)c1,-19%
COc1ccc(CC(=O)N2CC(=O)Nc3ccc(Br)cc3C2c2ccc(F)cc2)cc1OC (stereo not drawn),13%
CCC(C(=O)NC1CCC(C)CC1)n1nc(C)c2sc3ccccc3c2c1=O (stereo not drawn),-16%
COc1ccc(-c2[nH]ncc2C(=O)NCc2cccc(Cl)c2)cc1,-11%
Cc1ccc(CNC(=O)Cn2c(=O)n(-c3ccccc3)c(=O)c3c2c2cc(C)ccc2n3C)cc1,5%
O=C(CSc1oc(-c2ccco2)nc1S(=O)(=O)c1ccc(Br)cc1)c1ccc(Cl)cc1,5%
CC1=C(C(N)=O)C(c2ccc(F)cc2)n2nc(-c3ccccc3Cl)nc2N1 (stereo not drawn),1%
Cc1ccc(CNC(=O)CN(c2cc(C)cc(C)c2)S(=O)(=O)c2c(C)noc2C)cc1,-4%
Cc1cc(C)cc(NC(=O)CN2C(=O)c3ccccc3Sc3ccc(C(=O)N4CCCC4)cc32)c1,-3%
CCCNC(=O)C1CCN(c2cc(C)nc3c(-c4ccc(OC)c(OC)c4)c(C)nn23)CC1,7%
COc1ccc(CCNC(=O)C2COc3ccccc3C2)cc1OC (stereo not drawn),-3%
COc1cc(C(=O)Nc2ccccc2-c2nc(-c3ccccc3)no2)cc(OC)c1OC,-3%
Cc1ccc(OCCn2c(C3CC(=O)N(Cc4ccc(F)cc4)C3)nc3ccccc32)c(C)c1 (stereo not drawn),u
Cc1ccc(-n2c(=O)c3c4c(sc3n(CC(=O)Nc3ccccc3C)c2=O)CCCCC4)cc1C,-1%
Cc1ccc(NC(=O)CN2CCN(c3ccccc3F)CC2)cc1F,-4%
CCc1ccccc1OCC(=O)Nc1ccc(S(=O)(=O)Nc2nc(C)cc(C)n2)cc1,-22%
Cc1cc(C)c(NC(=O)Cn2nc3c(cc2=O)CCCC3)c(C)c1,0%
Cc1nn(-c2ccccc2)c2c1cc1c(=O)[nH]c(=O)nc-1n2-c1cccc(C(F)(F)F)c1,-1%

# Single entries from the results shown.
# Under miR-21 FLuc, `CN(c1ccccc1)c1ncnc2c1cnn2C` shows -19%
# Under miR-21 FLuc, `CCc1ccc(CNC(=O)CN2C(=O)c3cccnc3Oc3ccc(C)cc32)cc1` shows 17%
# Under miR-21 FLuc, `O=C(Nc1nc2n(n1)C(c1ccc(F)cc1)C=C(c1ccccc1)N2)c1cccc([N+](=O)[O-])c1` (stereo not drawn) shows -1%
# Under miR-21 FLuc, `CCC(C(=O)NC1CCC(C)CC1)n1nc(C)c2sc3ccccc3c2c1=O` (stereo not drawn) shows -16%
# Under miR-21 FLuc, `COc1ccc(-c2noc(CN(C(=O)COc3cc(C)c(Br)c(C)c3)C(C)C)n2)cc1` shows -21%
# Under miR-21 FLuc, `COc1ccc(CC(=O)N2CC(=O)Nc3ccc(Br)cc3C2c2ccc(F)cc2)cc1OC` (stereo not drawn) shows 13%

# In the list so far, 3 contain a CF3 group:
SMILES,miR-21 FLuc
COc1cccc(C(=O)c2sc3nc(-c4ccccc4)cc(C(F)(F)F)c3c2N)c1,-4%
COc1ccc(-n2nc(C(=O)N(C)c3cccc(C(F)(F)F)c3)c3c4ccccc4n(C)c3c2=O)cc1,-5%
Cc1nn(-c2ccccc2)c2c1cc1c(=O)[nH]c(=O)nc-1n2-c1cccc(C(F)(F)F)c1,-1%

# Screening results from PubChem.
